Screening data: PubChem BioAssay, several laboratories
Insulin prom inh – TRM-6 insulin promoter activity inhibition. TRM-6 cells (human fetal islet line), insulin promoter-eGFP reporter, imaging; reporter expression induced with tamoxifen. inhibition, % at 2 µM. 0.9% of 130,000 active. AID 1273;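 active = inhibition above the mean plus 3 SD, with well images judged a real hit on visual review, cut at about 60% in these data, passing the limit was not always enough; inconclusive = inhibition over the cutoff but images rejected on review; inactive = inhibition not above the cutoff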
GALR2 agonist – activates the human galanin receptor 2; activation, %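 (tested at 5 µM)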; O43603; 0.48% of 140,000 active; GALR2-expressing cells, agonist activation read-out;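 active = above mean plus 3 SD of all compounds, about 5% in these data, not always enough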;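 also: 0% = vehicle buffer wells and 100% = reference agonist at full effect; tested in CHO reporter cells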
HSV augment – HSV replication enhancement; maximum fold increase; 0.005% of 220,000 active; HSV replication augmentation in cells, fold increase;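 active = peak rise of 1.5-fold or more in the series; inconclusive = self-fluorescent or not available for retest; tested in PC3 cells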;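 also: first round at 10 µM; read as green reporter fluorescence; hits show the peak of a series up to 25 µM; 1 = signal of infected wells without compound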
RGS16-Gao HTS – regulators of human RGS16-Galphao interaction | O15492+P09471 | bead-based flow cytometry RGS16-Galphao binding, fluorescence; actives lie on both sides | binding response (% of control), % at 10 µM | 0.38% of 220,000 active;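 active = below 25% or above 175%, edge rows of some plates excepted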;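 also: Galphao activated by GDP with aluminum fluoride before binding; 100% = wells without compound and 0% = beads without RGS; some results beyond the cut were filed as inactive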
PKD1 inh – PKD1 (human) kinase inhibition; PKD1 kinase fluorescence polarization assay; Q15139; 0.056% of 200,000 active; inhibition, %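 (about 10 µM by stock and volumes)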;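 active = inhibition of 50% or more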;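 also: controls were vehicle for no effect and a reference inhibitor for full effect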
Target sequence (Q15139 whole entry, looked up): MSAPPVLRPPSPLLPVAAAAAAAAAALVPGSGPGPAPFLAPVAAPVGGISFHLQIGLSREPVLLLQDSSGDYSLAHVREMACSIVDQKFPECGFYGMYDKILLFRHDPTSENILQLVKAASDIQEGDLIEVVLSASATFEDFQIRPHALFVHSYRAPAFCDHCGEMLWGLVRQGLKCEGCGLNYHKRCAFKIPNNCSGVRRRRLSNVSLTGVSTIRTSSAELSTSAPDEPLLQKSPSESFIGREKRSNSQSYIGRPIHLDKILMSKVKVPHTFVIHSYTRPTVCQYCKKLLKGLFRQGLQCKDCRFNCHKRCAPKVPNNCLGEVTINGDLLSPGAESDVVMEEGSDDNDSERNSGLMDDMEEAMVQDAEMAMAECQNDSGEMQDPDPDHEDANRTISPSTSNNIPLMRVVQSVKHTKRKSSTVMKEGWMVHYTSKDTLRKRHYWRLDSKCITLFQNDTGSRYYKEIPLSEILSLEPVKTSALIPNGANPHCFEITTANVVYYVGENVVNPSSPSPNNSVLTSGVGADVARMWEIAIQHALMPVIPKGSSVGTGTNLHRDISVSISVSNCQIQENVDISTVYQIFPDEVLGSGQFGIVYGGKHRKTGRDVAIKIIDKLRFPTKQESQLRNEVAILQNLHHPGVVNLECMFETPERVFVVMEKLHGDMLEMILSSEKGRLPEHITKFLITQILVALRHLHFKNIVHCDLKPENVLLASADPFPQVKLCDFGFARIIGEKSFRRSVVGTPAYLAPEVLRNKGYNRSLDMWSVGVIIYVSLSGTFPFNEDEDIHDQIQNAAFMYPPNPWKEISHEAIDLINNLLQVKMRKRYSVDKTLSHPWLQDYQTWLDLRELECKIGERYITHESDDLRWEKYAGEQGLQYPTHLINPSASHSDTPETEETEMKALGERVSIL
Insulin prom inh cell count – recorded beside Insulin prom inh, whose call it bears; normalized cell count, %; measured here: cell count, toxicity; reference of the scale not given here;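 cells exposed to compound for 48 h; stained nuclei by imaging scaled within each plate; lower means fewer cells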
HSV augment primary fold – also measured in HSV augment; calls as there; fold increase; compound at 10 µM; measured here: primary screen fold increase 10 uM; tested in PC3 cells;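 GFP signal in the first replicate; 1 = infected wells without compound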
Active calls of the source: *; i = inactive; ? = inconclusive; . = not tested or not shown.

SMILES	Insulin prom inh	Insulin prom inh cell count	GALR2 agonist	HSV augment	HSV augment primary fold	RGS16-Gao HTS	PKD1 inh
Nc1c(Cl)ncnc1NCC(O)CO (configuration not stated)	.	.	.	i	1.1	99	.
O=C(N/N=C/c1cc(Br)cc(Br)c1O)c1cccc(S(=O)(=O)N2CCOCC2)c1	.	.	.	i	0.99	96	.
CN(C)C(=O)c1ccc(NC(=O)c2cccnc2)cc1	-4	90	-1.5	i	0.88	105	2
O=C(N/N=C/c1ccc2c(c1)OCO2)c1ccc2c(c1)OCCO2	-29	146	-0.3	i	0.79	102	-3
CCOC(=O)N1CCN(c2c(NCCCN3CCCCCC3)c(=O)c2=O)CC1	.	.	-0.5	i	0.99	102	2
CCOc1cc(C(=O)Nc2cc(C)ccn2)cc(OCC)c1OCC	-33	105	-0.4	i	0.8	88	3
COc1ccc(C(=O)/C=C/c2cc(C(=O)O)cc3c2OCOC3)c(O)c1	.	.	.	i	0.8	98	.
COC(=O)c1cn(NC(=O)Cc2cccc(C(F)(F)F)c2)c(=O)c2ccccc12	20	96	.	i	0.95	100	-1
CC(=O)c1cccc(N(C(=O)CS(=O)CC(=O)Nc2ccc(F)cc2)C(C(=O)NC2CCCCC2)c2ccc(C)o2)c1 (configuration not stated)	-3	83	0.2	i	0.96	94	-8
CC(=O)Nc1ccc(S(=O)(=O)NCC(CCC(=O)O)C(F)(F)F)cc1 (configuration not stated)	-17	123	.	i	0.96	105	-2
CN(C(=O)COC(=O)c1sc2ccccc2c1Cl)C1CCCCC1	7	169	0.6	i	0.9	102	-2
O=c1n(Cc2ccccc2)c2cc(Cl)cnc2n1Cc1ccccc1	.	.	0.7	i	0.87	101	-9
Cc1cnc(C(=O)OCC(=O)c2cc(C)n(C)c2C)cn1	.	.	.	i	1	98	-2
O=C(C1CC(Cl)CN1S(=O)(=O)c1ccc(Cl)cc1)N1CCOCC1 (configuration not stated)	.	.	.	i	1	101	-6
CCN(CC)S(=O)(=O)c1ccc(N=Nc2c(N)[nH]c(=O)[nH]c2=O)cc1	.	.	.	i	0.89	99	.
C/C(CC1(O)C(=O)N(Cc2ccccc2)c2ccccc21)=N\O (configuration not stated)	18	86	-1.5	i	1	102	-9
CC(CNC(=O)c1ccc(N)cc1)NC(=O)c1ccc(N)cc1 (configuration not stated)	-2	108	.	i	0.99	101	3
O=C(CN1CCN(c2ncccn2)CC1)Nc1ccccc1-n1cccc1	.	.	-1.4	i	0.89	179	12
COc1cc(C(=O)OCC(=O)Nc2cc(C)on2)cc(OC)c1OC	-39	56	0.6	i	1.2	103	-5
CCN1C(=O)C2C(c3ccc(O)c(OC)c3)NC(C)(C(=O)OC)C2C1=O (configuration not stated)	.	.	-0.9	i	0.87	90	-12
Fc1ccc(CN2CCN(C(=S)NCCc3ccccc3)CC2)c(Cl)c1	.	.	.	i	0.85	107	2
COc1ccccc1OCC(O)CNCc1ccc2c(c1)OCO2 (configuration not stated)	.	.	.	i	0.97	103	.
CCCCN(c1ccccc1)S(=O)(=O)c1cccc2cccnc12	.	.	.	i	1	92	.
Cn1c(OCc2cccnc2)nc2c1c(=O)n(Cc1ccc(Cl)cc1)c(=O)n2C	-6	152	-2.5	i	0.92	.	-6
Cc1ccc(S(=O)(=O)NCc2ccc3[nH]c(C)cc3c2)cc1	-18	73	.	i	0.98	108	-2
Cc1ccc(NC(=O)c2ccc(CSc3ccccn3)cc2)c(O)c1	.	.	.	i	1.1	98	.
CC(C)N(CCNC(=O)c1cn(C)c2ccc(S(=O)(=O)N(C)C)cc2c1=O)Cc1ccccc1	.	.	-2.3	i	0.88	104	-6
CCOc1ccc(-c2nnc(-c3ccco3)o2)cc1OCC	30	82	-1.4	i	1.1	97	0
COc1ccccc1-n1c2c(cc(C(=O)N3CCC(C)CC3)c1=O)C(=O)CC(C)(C)C2	.	.	-1.9	i	1	93	2
CCn1c(=O)c(C(C)=O)c(O)c2ccccc21	.	.	.	i	1	100	-8
Cc1ccc(S(=O)(=O)c2nnn3c2nc(Nc2cccc(C)c2)c2ccccc23)cc1	-96	40	-1.4	i	1	102	6
CCc1ccc(OCCCC(=O)NCc2ccco2)cc1	.	.	.	i	1	102	0
COCc1cc(C)nc(SCC[N+](C)(C)CC(=O)Nc2cccc(C(F)(F)F)c2)c1C#N	-13	131	.	i	0.84	104	6
O=C(Oc1ccc(Br)cc1)c1n[nH]c(=O)c2ccccc12	.	.	.	i	0.75	103	-1
O=C(NC1(O)C(=O)c2ccccc2C1=O)c1c(Cl)cccc1Cl	.	.	.	i	1.1	98	.
Nc1ccc(S(=O)(=O)Nc2cnc3ccccc3n2)cc1	.	.	.	i	0.97	103	.
CCC(C)(C)NC(=O)C(c1ccccc1F)N(Cc1ccco1)C(=O)Cn1nnc2ccccc21 (configuration not stated)	.	.	-0.7	i	0.98	67	1
CN(C)CCN(Cc1cccs1)c1ccccn1	19	116	0.0	i	1.1	74	2
CCOc1cc(/C=N/n2c(C)nc3sc(C)c(C)c3c2=O)ccc1O	49	24	.	i	1.1	110	10
Cn1cc(CN(CCO)Cc2cccs2)c(-c2cccc(Cl)c2)n1	.	.	.	i	1.2	100	-13
COC(=O)c1cc(Br)c(=O)n(Cc2ccco2)c1	.	.	-2.7	i	0.99	106	-10
C=CCSc1nc(N)c(C(=O)Nc2ccccc2OC)cc1C(=O)Nc1ccccc1	-3	120	-1.8	?	.	98	-4
Cc1cc(C)n(-c2nc(NCc3cccnc3)c3c4c(sc3n2)COC(C)(C)C4)n1	.	.	1.0	i	0.97	101	-5
O=C(NCCCl)NNc1c(Cl)cc(Cl)cc1Cl	-53	54	.	i	1.1	96	-6
COc1ccc(NC(=O)CSc2nc(NS(=O)(=O)c3ccccc3)cc(=O)[nH]2)cc1	-36	101	-1.5	i	0.99	92	4
CCC1CCc2c(sc(NC(=O)c3ccoc3C)c2C(N)=O)C1 (configuration not stated)	-60	47	-2.5	i	0.78	100	-9
Nc1c(N2CCN(c3ccccc3)CC2)c2ccccc2oc1=O	19	107	-1.4	i	0.9	105	-5
COc1ccc(C(CNC(=O)c2cc(F)c(F)c(F)c2F)N2CCOCC2)cc1 (configuration not stated)	.	.	.	i	1	105	-7
O=C(NCC(c1ccc(F)cc1)N1CCOCC1)c1c(F)cccc1F (configuration not stated)	.	.	.	i	0.99	102	.
Cc1ccc(S(=O)(=O)/N=C/c2ccco2)cc1	.	.	-0.6	i	0.89	40	-7

The list continues.
SMILES	Insulin prom inh	Insulin prom inh cell count	GALR2 agonist	HSV augment	HSV augment primary fold	RGS16-Gao HTS	PKD1 inh
CN(CC(=O)Nc1ccccc1Cl)C(=O)COC(=O)CNC(=O)c1ccc(Br)o1	-3	59	1.0	i	0.9	.	1
CCN1CCN(C(=S)NCCOC)CC1	.	.	.	i	0.98	98	-5
CN(C)c1ccc(SC#N)cc1	.	.	.	i	1	90	.
CNC(=S)NCCN1CCOCC1	-3	219	-1.4	i	1	108	-6
COc1ccc(N(CC(=O)Nc2cccnc2)S(C)(=O)=O)cc1	.	.	.	i	0.94	109	-6
CC(=O)c1cccc(NC(=O)c2cc(C)no2)c1	.	.	-1.9	i	1.1	104	-24
Cc1cccc2[nH]c(SCC(=O)O)nc12	.	.	.	i	0.92	102	-8
O=C(c1cnn2c(C(F)F)cc(C3CC3)nc12)N1CCc2ccccc2C1	14	161	-0.7	i	0.82	102	-4
O=C(COc1ccc(Cl)cc1Cl)NCc1ccco1	-29	142	-0.8	i	0.9	99	-1
c1ccc(C2(c3ccccc3)OCC(Cn3cncn3)O2)cc1 (configuration not stated)	9	89	-2.3	i	1.1	100	11
O=C(c1ccccc1)c1cnc(Nc2ccc(Cl)c(Cl)c2)s1	-12	77	-0.1	i	0.87	108	-10
Cc1ccc(NC(=O)c2sc3nc(CCl)[nH]c(=O)c3c2C)c(C)c1	25	59	.	i	1	91	-6
Cc1ccc(OCC(=O)Nc2cccc(C)n2)c(C)c1	-53	77	-3.8	i	0.92	103	-13
Cc1cc(OCC(=O)NCCCN(C)C)cc(C)c1Br	64	149	-1.4	i	1	99	-3
S=c1[nH]nc(Cc2ccc(Cl)cc2)n1-c1ccc2c(c1)OCCO2	60	92	.	i	1.2	118	-4
O=C(Nc1ccc([N+](=O)[O-])cn1)c1ccc(Br)o1	25	84	0.7	i	1	135	-10
O=[N+]([O-])c1ccc(O)c(/C=N/NC(=S)Nc2ccc(Cl)cc2Cl)c1	.	.	.	i	0.78	103	.
C=CCn1c(N)c(-c2nc3ccccc3n2C)sc1=S	-71	42	0.1	?	.	102	-2
N#C/C(=C\c1cc(Cl)ccc1O)C(=O)NC1CCCCC1	.	.	-2.3	i	0.9	108	3
O=C(COc1cccc(Oc2ccccc2)c1)Nc1ccc(SC(F)F)cc1	-37	96	-1.2	i	0.99	87	0
CC(C)N1CC(C(=O)Nc2ccccc2)CC1=O (configuration not stated)	-156	128	-2.7	i	0.99	112	13
O=C(Nc1ccccc1)N1CCN(c2nc3ccccc3s2)CC1	45	169	-1.7	i	0.8	87	11
Cc1c(C(=O)NCc2cccnc2)oc2c1C(=O)CC(C)(C)C2	79*	51*	-0.6	i	1.1	101	-7
O=C(O)Cc1nn(Cc2ccc(Cl)cc2)c(=O)c2ccccc12	.	.	.	i	1.1	102	0
Cc1nc(N(C)C)c2sc(=S)n(Cc3ccccc3)c2n1	.	.	.	i	1.1	99	8
COc1ccc(OC)c(Cc2nnc(CCC(=O)NC3CCCCCCC3)o2)c1	.	.	.	i	0.93	101	5
CN1CCN(c2ccccc2NC(=O)c2ccc(N3CCCCC3)c([N+](=O)[O-])c2)CC1	.	.	.	i	0.86	98	-4
Cc1ccc(Cl)cc1N(CC(=O)NC1CCCCC1)S(C)(=O)=O	.	.	-1.0	i	0.84	i	4
Cc1cc(C)c(NC(=O)CN2CCN3CCCC3C2)c(C)c1 (configuration not stated)	-124	70	-0.6	i	1.2	103	-12
COc1ccc(-c2onc(C)c2-c2cscn2)c(O)c1	.	.	.	i	0.94	100	3

Pulled by compound from above (7):
SMILES	Insulin prom inh	Insulin prom inh cell count	GALR2 agonist	HSV augment	HSV augment primary fold	RGS16-Gao HTS	PKD1 inh
Cc1nc(N(C)C)c2sc(=S)n(Cc3ccccc3)c2n1	.	.	.	i	1.1	99	8
Cc1c(C(=O)NCc2cccnc2)oc2c1C(=O)CC(C)(C)C2	79*	51*	-0.6	i	1.1	101	-7
COc1ccc(-c2onc(C)c2-c2cscn2)c(O)c1	.	.	.	i	0.94	100	3
CC(C)N1CC(C(=O)Nc2ccccc2)CC1=O (configuration not stated)	-156	128	-2.7	i	0.99	112	13
O=C(Nc1ccccc1)N1CCN(c2nc3ccccc3s2)CC1	45	169	-1.7	i	0.8	87	11
O=C(O)Cc1nn(Cc2ccc(Cl)cc2)c(=O)c2ccccc12	.	.	.	i	1.1	102	0
Cc1ccc(Cl)cc1N(CC(=O)NC1CCCCC1)S(C)(=O)=O	.	.	-1.0	i	0.84	i	4

Continued.
SMILES	Insulin prom inh	Insulin prom inh cell count	GALR2 agonist	HSV augment	HSV augment primary fold	RGS16-Gao HTS	PKD1 inh
Cc1nnc(SCC(=O)c2ccccc2F)n1Cc1ccccc1	.	.	.	i	0.91	99	.
Cc1ccc(C2=N/C(=C\c3cccs3)C(=O)N2Nc2ccccc2)cc1	51	115	-0.2	i	1	101	-6
CCCCn1c(SCc2nc(N)nc(Nc3ccccc3C)n2)nc2ccccc2c1=O	13	92	-0.6	i	0.94	99	-6
Cc1ccc2sc(NC(=O)CN3C(=O)c4ccccc4C3=O)nc2c1C	-12	103	-1.4	.	.	82	-4
CC(C)NC(=O)CCCOc1ccc(Cl)cc1Cl	-58	97	1.1	i	0.79	95	-4
C[C@H](NC(N)=O)C(=O)Nc1ccc(OCc2ccccc2)cc1	.	.	.	i	0.92	102	4
CCC(=O)N1CCc2cc(S(=O)(=O)CCC(=O)NCc3ccc4c(c3)OCO4)ccc21	0	65	-0.3	.	.	99	-4
CNC(=S)Nc1ccc(Cc2ccncc2)cc1	.	.	.	i	1	105	.
COC(=O)c1cc(Br)ccc1NC(=O)Nc1ccccc1	-24	109	-0.2	i	1	103	-1
O=C(NCCO)/C(=C\c1cccs1)NC(=O)c1cccs1	-43	91	-1.4	i	1	99	8
CC(C)OCCCNC(=O)CCSc1ccc(Cl)cc1	-69	68	-1.1	i	0.94	87	-2
CCCCCCCCCCOC(=O)c1csc2nnsc12	14	107	-1.2	i	0.83	105	-6
CC1(C)Cc2c(sc3c2C2=NCCN2C=N3)CO1	46	222	0.0	i	0.99	.	0
